High-throughput results as filed in PubChem.
rRNA inh HTS = inhibits bacterial ribosomal RNA function over humanized ribosomes | hit rate 1.6% among 350,000 | GFP signal change (wild-type ribosome), % (no concentration beside the values) | E. coli WT GFP vs humanized-ribosome RFP mutants, fluorescence, 24 h; active compounds read low; DMSO median 0, no signal -100;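 active = significant combined selectivity score with lowered wild-type GFP, culture density cut under 30%, mutant RFP and density less affected; inactive = any of these conditions unmet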; note: one replicate is shown; some compounds called inactive have numbers as strong as hits
FGF22 binding = FGF22 (human) thermal shift binding; Q9HCT0; recombinant FGF22 thermal shift, SYPRO orange fluorescence; percent of sucrose octasulfate shift, DMSO zero; calls only at 9.99 µM; hit rate 1.5% among 340,000;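 active = melting point raised past a set limit in the mean and every replicate; three in four hits are not shown here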
Target sequence (Q9HCT0 whole entry, looked up): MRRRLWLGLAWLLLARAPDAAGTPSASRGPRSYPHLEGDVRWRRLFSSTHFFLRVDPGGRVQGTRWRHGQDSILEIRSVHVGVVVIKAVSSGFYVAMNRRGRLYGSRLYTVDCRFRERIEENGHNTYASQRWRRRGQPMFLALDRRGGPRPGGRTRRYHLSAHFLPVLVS
MLL AF4-AF9 inh = MLL-AF4/AF9 protein interaction inhibition. AlphaScreen, biotin-AF4 peptide binding to FLAG-AF9. inhibition, % at 10 µM. hit rate 0.47% among 350,000;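 active = every replicate reaching a set inhibition limit, whatever the replicate mean, cut at about 25% in these data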;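 note: 0% = plate neutral control median and 100% = total signal loss; the record names both 10 and 1 µM as test concentration; the first replicate is given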
Target sequence (P42568 whole entry, looked up): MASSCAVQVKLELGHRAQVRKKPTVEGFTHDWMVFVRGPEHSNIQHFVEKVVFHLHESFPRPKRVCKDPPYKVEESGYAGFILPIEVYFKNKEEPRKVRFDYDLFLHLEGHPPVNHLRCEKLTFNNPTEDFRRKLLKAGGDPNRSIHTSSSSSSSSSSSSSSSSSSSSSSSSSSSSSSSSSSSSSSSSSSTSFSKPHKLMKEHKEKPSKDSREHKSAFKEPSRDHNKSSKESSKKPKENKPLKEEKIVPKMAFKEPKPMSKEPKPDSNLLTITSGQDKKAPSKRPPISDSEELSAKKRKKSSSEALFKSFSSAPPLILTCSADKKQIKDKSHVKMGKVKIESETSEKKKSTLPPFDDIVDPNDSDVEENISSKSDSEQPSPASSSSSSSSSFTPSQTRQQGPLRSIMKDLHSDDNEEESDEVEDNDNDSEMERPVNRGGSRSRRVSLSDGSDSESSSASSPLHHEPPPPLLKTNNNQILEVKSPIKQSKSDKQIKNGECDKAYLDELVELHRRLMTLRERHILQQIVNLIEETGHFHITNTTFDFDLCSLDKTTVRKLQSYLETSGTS
rRNA inh HTS OD600 = second read-out of rRNA inh HTS, no call of its own (marks repeat the call); OD600 change, %; measured here: OD600 growth;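 optical density of the mix in the first replicate; 0 = DMSO median and -100 = no signal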
rRNA inh HTS RFP = also measured in rRNA inh HTS; calls as there; RFP signal change, %; measured here: RFP humanized mutant strains;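 first replicate; 0 = DMSO median and -100 = no signal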
* marks the source's active call; other numbers are inactive results; i = inactive; / = no result given; & = joins results of further samples. A portion of the library (hit frequency here may not be typical).

SMILES	rRNA inh HTS	rRNA inh HTS OD600	rRNA inh HTS RFP	FGF22 binding	MLL AF4-AF9 inh
C[C@@H]1CN([C@@H](C)CO)C(=O)c2cc(NC(=O)Nc3ccc(C(F)(F)F)cc3)ccc2O[C@@H](C)CCCCO[C@@H]1CN(C)Cc1ccc(C(F)(F)F)cc1	2	7	2.4	i	/
Nc1ccc(F)c(CN2CCN(c3ncc(Cc4ccccc4)cn3)CC2)c1	-25	-22	3.0	i	/
COc1ccc(S(=O)(=O)Nc2ccc3c(c2)CC(=O)N([C@@H](C)CO)C[C@H](C)[C@@H](CN(C)S(=O)(=O)c2ccccc2)O3)cc1	1	0	-1.2	i	/
CN1C(=O)c2cc(NC(=O)c3ccc(F)c(F)c3)ccc2OC[C@@H]2O[C@@H](CC(=O)O)CC[C@@H]21	0	2	-0.1	i	/
COC(=O)C1=CN(c2ccc(C)cc2)C(N)=C(C#N)C1c1ccccc1F (centres undefined)	-17	-51	16	i	/
C/C=C/c1ccc(C2[C@@H]3CN(S(=O)(=O)c4ccc(C)cc4)C[C@H]2N3)cc1 (some centres undefined)	2&-24	12&-58	0.1&17	i	/
CN(C)C(=O)c1ccc(-c2ccc(C3[C@@H]4CN(Cc5cncnc5)C[C@H]3N4)cc2)cc1 (some centres undefined)	2&5	-5&4	-3.6&-1.6	i	/
OC[C@H]1[C@@H](c2ccc(-c3cccc(F)c3)cc2)[C@@H]2CN(CCC(F)(F)F)CCCCN12	-59	-78	-15	i	/
C[C@H](CO)N1C[C@H](C)[C@@H](CN(C)CC2CCCCC2)OCCCC[C@H](C)Oc2ccc(NC(=O)CCC(F)(F)F)cc2C1=O	-3	10	-0.8	i	/
COc1ccc(S(=O)(=O)Nc2ccc3c(c2)C(=O)N([C@H](C)CO)C[C@H](C)[C@@H](CN(C)C(=O)Nc2ccccc2)OCCCC[C@@H](C)O3)cc1	1	0	-1.2	i	/
COc1ccccc1CNC(=O)C[C@@H]1C[C@H]2c3cc(NC(=O)CC4CC4)ccc3O[C@H]2[C@H](CO)O1	-2	-7	-2.2	i	/
Cc1ccc(S(=O)(=O)Nc2ccc3c(c2)CC(=O)N([C@@H](C)CO)C[C@@H](C)[C@@H](CN(C)S(=O)(=O)c2ccc(Cl)cc2)O3)cc1	-4	-9	2.2	i	/
O=S(=O)(c1ccccc1F)N1CCCCN2[C@H](C1)[C@H](c1ccc(-c3cccnc3)cc1)[C@@H]2CO	-3	-16	2.1	i	/
COc1ccc(S(=O)(=O)Nc2ccc3c(c2)CC(=O)N([C@H](C)CO)C[C@H](C)[C@@H](CN(C)S(=O)(=O)c2ccc(F)cc2)O3)cc1	-9	-11	3.6	i	/
COc1ccc2c(c1)[C@]1(C[C@H](O)CO1)C(=O)N2C	4	15	-1.5	i	/
Cc1cc(C(=O)Nc2ccc3c(c2)C(=O)N(C)[C@H]2CC[C@@H](CC(=O)N[C@H](C)c4ccccc4)O[C@H]2CO3)no1	0	8	1.6	i	/
CCNC(=O)Nc1ccc2c(c1)C(=O)N(C)[C@H]1CC[C@H](CC(=O)NCc3cccc(F)c3)O[C@@H]1CO2	2	-1	-1.0	i	/
C[C@@H]1CN([C@H](C)CO)C(=O)c2cc(NC(=O)NC3CCCCC3)ccc2O[C@@H](C)CCCCO[C@@H]1CN(C)C(=O)Cc1ccccc1	-2	-9	-2.3	i	/
COc1ccc(-c2ccc3c(c2)[C@@H]2[C@@H](CCN2S(=O)(=O)c2ccc(OC)cc2)[C@@H](CO)N3)cc1	2	6	-1.8	i	/
O=C(N[C@H](Cc1ccccc1)C(=O)N1CCN(c2ncccn2)CC1)[C@H]1O[C@@H](n2ccc(=O)[nH]c2=O)[C@H](O)[C@@H]1O	12	11	5.0	i	/
COc1ccc(NC(=O)Nc2cccc3c2O[C@H](CN(C)C(=O)Nc2cccc4ccccc24)[C@H](C)CN([C@H](C)CO)C3=O)cc1	-44	-71	-6.2	i	/
COCC(=O)Nc1ccc2c(c1)C(=O)N(C)[C@@H]1CC[C@@H](CC(=O)O)O[C@@H]1CO2	5	6	-0.5	i	/
Cc1noc(C)c1S(=O)(=O)Nc1ccc2c(c1)C(=O)N([C@H](C)CO)C[C@@H](C)[C@H](CN(C)S(=O)(=O)c1cccs1)OCCCC[C@H](C)O2	-1	-5	-0.6	i	/
COCC(=O)N1C[C@H]2[C@@H](c3ccccc31)[C@H](CO)N2C(=O)C1CCCCC1	1	-7	-1.9	i	/
COCC(=O)Nc1ccc2c(c1)C(=O)N(C)[C@@H]1CC[C@H](CC(=O)NC3CCCC3)O[C@H]1CO2	3	0	2.7	i	/
Cc1ccccc1S(=O)(=O)N1C[C@@H]2N[C@H](C1)C2c1ccc(-c2cccc(C#N)c2)cc1 (some centres undefined)	-7&-55	-10&-77	1.1&-17	i	/
CC(C)[C@H](NC(=O)c1cccs1)C(=O)N1CCC[C@H]1C(=O)NCc1ccccc1	-4	-2	-2.5	i	/
Cc1ccc(S(=O)(=O)Nc2cccc3c2O[C@H](CN(C)S(=O)(=O)c2ccc(C)cc2)[C@H](C)CN([C@@H](C)CO)C3=O)cc1	1	2	-0.7	i	/
Cc1noc(C)c1NC(=O)N(C)C[C@@H]1Oc2ccc(NS(=O)(=O)c3cccs3)cc2CC(=O)N([C@@H](C)CO)C[C@@H]1C	7	13	3.1	i	/
COc1ccc(S(=O)(=O)Nc2ccc3c(c2)C(=O)N([C@H](C)CO)C[C@H](C)[C@H](CN(C)S(=O)(=O)c2ccc(Cl)cc2)O3)cc1	-1	-8	4.7	i	/
C[C@H](CO)N1C[C@H](C)[C@H](CN(C)C(=O)NC2CCCCC2)OCCCC[C@H](C)Oc2ccc(NS(C)(=O)=O)cc2C1=O	-2	-5	-2.1	i	/
CC(C)NC(=O)Nc1ccc2c(c1)C(=O)N(C)[C@@H]1CC[C@@H](CC(=O)NC3CCCCC3)O[C@@H]1CO2	0	-1	0.1	i	/
CCCN1CCCCC(NC(=O)COCc2ccccc2)C1=O (centres undefined)	0	5	-1.4	i	/
C[C@@H]1CCCCO[C@@H](CN(C)C(=O)Nc2ccc(C(F)(F)F)cc2)[C@H](C)CN([C@@H](C)CO)C(=O)c2cc(NC(=O)Nc3ccc(C(F)(F)F)cc3)ccc2O1	1	4	-0.8	i	/
COc1ccc(-c2ccc3c(c2)[C@H]2[C@H](CCN2S(=O)(=O)c2ccc(OC)cc2)[C@@H](CO)N3)cc1	-4	5	0.2	i	/
COC(=O)C1=C(C)N(Cc2ccc(Cl)cc2)C(=S)NC1c1ccc(Br)cc1 (centres undefined)	21	12	2.9	i	/
C[C@@H]1CCCCO[C@H](CN(C)C(=O)c2ccncc2)[C@H](C)CN([C@H](C)CO)C(=O)c2cc(NC(=O)CCC(F)(F)F)ccc2O1	1	10	-0.5	i	/
O=C(C[C@@H]1CC[C@H]2NC[C@H](O)COC[C@@H]2O1)NCc1ccc2c(c1)OCO2	2	1	-5.8	i	/
COCCNC(=O)C[C@@H]1CC[C@@H]2[C@H](COC[C@H](O)CN2C(=O)c2cc(Cl)cc(Cl)c2)O1	1	3	0.8	i	/
C[C@H]1CCCCO[C@H](CN(C)C(=O)Cc2ccccc2)[C@@H](C)CN([C@@H](C)CO)C(=O)c2cc(NC(=O)CCC(F)(F)F)ccc2O1	-2	-4	0.0	i	/
O=C(NC1CCCC1)[C@@H]1CCCN1C(=O)[C@@H](NS(=O)(=O)c1ccc(F)cc1F)C1CCCCC1	-6	-3	2.6	i	/
COc1ccc(S(=O)(=O)Nc2ccc3c(c2)C(=O)N([C@H](C)CO)C[C@H](C)[C@@H](CN(C)S(=O)(=O)c2ccc(OC)cc2)OCCCC[C@H](C)O3)cc1	-5	5	2.7	i	/
O=C(Nc1ccccc1)Nc1ccc2c(c1)[C@H]1C[C@H](CC(=O)N3CCOCC3)O[C@H](CO)[C@H]1O2	1	6	0.2	i	/
CCCNC(=O)C[C@@H]1C[C@H]2c3cc(NC(=O)c4ccc5c(c4)OCO5)ccc3O[C@H]2[C@H](CO)O1	-4	-10	-2.5	i	/
C[C@H](O)[C@@H]1C(=O)N2CCc3c([nH]c4c(-c5ccccc5)cccc34)[C@@H]2C[C@@H]1N(C)C(=O)c1ccccc1F	5	-3	9.0	i	/
COC(=O)C1=C(C)N(Cc2ccccc2C(F)(F)F)C(=NCc2ccc(C(F)(F)F)cc2)NC1c1ccc(Cl)cc1 (centres undefined)	0	26	17	i	/
CN1C(=O)c2cc(NC(=O)c3cccc(F)c3)ccc2OC[C@@H]2O[C@@H](CC(=O)NCc3ccccc3)CC[C@@H]21	-8	-17	2.2	i	/
CN1CCN(C(=O)C[C@H]2C[C@H]3c4cc(NC(=O)Nc5ccccc5F)ccc4O[C@H]3[C@@H](CO)O2)CC1	-1	-6	1.0	i	/
O=C(c1ccccn1)N1CC(=O)N2[C@H](CO)[C@H](c3ccc(C#CCc4ccccc4)cc3)[C@@H]2C1	-2	-8	2.2	/	-2.5
N#C[C@H]1[C@H](c2ccccc2-c2ccccc2)[C@@H](CO)N1C(=O)NC1CCCCC1	-19	-56	5.6	/	0.7
O=C(Nc1cccc(F)c1)N1CC(=O)N2[C@H](CO)[C@H](c3ccc(C#CCC4CCCC4)cc3)[C@@H]2C1	0	-4	0.7	/	-4.0
c1ccc(Nc2nnc(-c3ccc4c(c3)OCO4)o2)cc1	-1	35	4.4	/	3.9
O=C(CC1CC1)N1CC(=O)N2[C@H](C1)[C@@H](c1ccc(C#Cc3ccc(F)cc3)cc1)[C@@H]2CO	-57	-75	-11	/	-4.2
CC=Cc1ccc2n(c1=O)C[C@@H]1[C@@H](CO)[C@H](C(=O)NC3CCCC3)N(C(=O)C3CC3)[C@H]21 (mixture of isomers)	1	3	0.0	/	1.0
CC=Cc1ccc2n(c1=O)C[C@H]1[C@H](CO)[C@@H](C(=O)NCC3CC3)N(C(C)=O)[C@@H]21 (mixture of isomers)	4	9	-1.5	/	-3.5
CN1CCN(C(=O)C[C@H]2C[C@H]3c4cc(NC(=O)C5CCOCC5)ccc4O[C@H]3[C@@H](CO)O2)CC1	1	0	1.1	/	-0.3
CNC[C@@H]1Oc2ccc(NC(=O)Nc3cccc4ccccc34)cc2CC(=O)N([C@@H](C)CO)C[C@H]1C	-4	4	1.3	/	6.6
O=C(O)[C@@H]1[C@@H](CO)[C@@H]2Cn3c(ccc(C4=CCCCC4)c3=O)[C@@H]2N1C(=O)Cc1cccnc1	2	3	-3.3	/	-1.8
Cc1noc(C)c1NC(=O)Nc1ccc2c(c1)CC(=O)N([C@@H](C)CO)C[C@H](C)[C@H](CN(C)Cc1ccc(C(F)(F)F)cc1)O2	-5	-8	1.6	/	4.0
O=C1CN(S(=O)(=O)c2ccccc2)C[C@@H]2[C@H](c3ccc(C#CCc4ccccc4)cc3)[C@@H](CO)N12	-1	0	4.2	/	-3.4

Going on with the list:
SMILES	rRNA inh HTS	rRNA inh HTS OD600	rRNA inh HTS RFP	FGF22 binding	MLL AF4-AF9 inh
COCC(=O)N(C)C[C@H]1Oc2cc(C3=CCCC3)ccc2S(=O)(=O)N([C@@H](C)CO)C[C@H]1C	-3	-6	-2.2	/	-1.3
COc1cc(CN2C[C@@H]3N[C@H](C2)C3c2ccc(-c3ccncc3)cc2)cc(OC)c1 (some centres undefined)	1&-3	-2&-12	0.3&-0.9	/	3.6&14
O=C(NC1CCCC1)N1CC2(C1)[C@H](c1ccccc1)[C@@H](CO)N2S(=O)(=O)Cc1ccccc1	-1	-3	-1.5	/	-1.1
O=C(O)C[C@H]1C=C[C@@H](NC(=O)CCN2CCCCC2)[C@H](CO)O1	0	8	1.4	/	-1.0
Cc1ccccc1S(=O)(=O)N1[C@H](C#N)[C@@H](c2ccc(C#CC3CCCC3)cc2)[C@@H]1CO	0	-9	3.2	/	1.7
O=C(Nc1cc(F)ccc1F)N[C@@H]1CC[C@H](CCn2cc(C3CCCC3)nn2)O[C@@H]1CO	-6	0	0.1	/	-4.2
CC(C)(C)[S@](=O)N1Cc2cc(C(=O)NC3CCCC3)nc(-c3cccc(Br)c3)c2[C@@H]1CCO	-7	-33	17	/	0.1
Cc1ccc(S(=O)(=O)N(C)C[C@@H]2OCCCC[C@@H](C)Oc3ccc(NC(=O)CCC(F)(F)F)cc3C(=O)N([C@H](C)CO)C[C@@H]2C)cc1	6	-1	1.2	/	-3.7

Part of the list above in order of molar mass, low to high.
SMILES	rRNA inh HTS	rRNA inh HTS OD600	rRNA inh HTS RFP	FGF22 binding	MLL AF4-AF9 inh
O=C(O)C[C@H]1C=C[C@@H](NC(=O)CCN2CCCCC2)[C@H](CO)O1	0	8	1.4	/	-1.0
COc1cc(CN2C[C@@H]3N[C@H](C2)C3c2ccc(-c3ccncc3)cc2)cc(OC)c1 (some centres undefined)	1&-3	-2&-12	0.3&-0.9	/	3.6&14
Cc1ccccc1S(=O)(=O)N1[C@H](C#N)[C@@H](c2ccc(C#CC3CCCC3)cc2)[C@@H]1CO	0	-9	3.2	/	1.7
O=C(NC1CCCC1)N1CC2(C1)[C@H](c1ccccc1)[C@@H](CO)N2S(=O)(=O)Cc1ccccc1	-1	-3	-1.5	/	-1.1
